hNpr1 antagonist: human Npr1 receptor antagonism | P16066 | HEK293 hNpr1 GloSensor cGMP, ANP-stimulated luminescence | Potency, µM (highest dose often 46.3 µM), for inactives: top-dose activity change, negative = inhibition, actives largely listed as inhibitors | actives 1.6% (n = 76,000); active = well fitted inhibition curve with a large enough effect; inconclusive = small, poorly fitted or top-dose-only effect; inactive = no such curve, though single readings can be large or run the other way;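 also: nearly all actives have a fitted effect of over 60% in size; nearly all hits also lower the signal before the agonist is added; a reference antagonist and vehicle were the controls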
Target sequence (P16066 whole entry, looked up): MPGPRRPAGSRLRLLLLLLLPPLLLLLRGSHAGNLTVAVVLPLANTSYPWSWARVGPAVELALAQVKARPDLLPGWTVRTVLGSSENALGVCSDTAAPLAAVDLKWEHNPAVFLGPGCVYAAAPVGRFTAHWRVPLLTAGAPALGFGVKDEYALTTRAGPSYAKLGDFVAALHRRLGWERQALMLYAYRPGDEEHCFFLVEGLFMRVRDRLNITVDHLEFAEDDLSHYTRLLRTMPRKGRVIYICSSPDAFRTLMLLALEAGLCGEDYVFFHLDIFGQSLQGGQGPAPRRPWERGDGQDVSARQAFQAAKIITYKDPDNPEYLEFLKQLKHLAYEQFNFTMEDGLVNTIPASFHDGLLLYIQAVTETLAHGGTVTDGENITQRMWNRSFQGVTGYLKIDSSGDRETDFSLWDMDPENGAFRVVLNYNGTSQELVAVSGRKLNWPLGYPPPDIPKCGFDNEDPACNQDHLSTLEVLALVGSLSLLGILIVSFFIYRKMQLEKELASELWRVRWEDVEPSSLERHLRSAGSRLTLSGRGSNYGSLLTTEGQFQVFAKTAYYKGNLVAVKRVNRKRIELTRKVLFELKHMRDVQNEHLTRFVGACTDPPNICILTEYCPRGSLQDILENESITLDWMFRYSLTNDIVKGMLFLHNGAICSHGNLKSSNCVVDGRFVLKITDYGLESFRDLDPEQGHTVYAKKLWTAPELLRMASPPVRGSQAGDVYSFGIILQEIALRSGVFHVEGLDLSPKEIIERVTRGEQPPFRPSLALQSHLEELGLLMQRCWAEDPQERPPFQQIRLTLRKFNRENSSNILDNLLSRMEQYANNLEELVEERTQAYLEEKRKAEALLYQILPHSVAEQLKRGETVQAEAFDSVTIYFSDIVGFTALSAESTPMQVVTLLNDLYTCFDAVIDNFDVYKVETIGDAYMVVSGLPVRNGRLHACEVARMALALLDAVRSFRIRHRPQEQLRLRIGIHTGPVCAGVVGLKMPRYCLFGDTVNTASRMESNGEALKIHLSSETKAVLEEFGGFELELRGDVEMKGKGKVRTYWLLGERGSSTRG
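Compound pre-incubated 30 min at room temperature on GloSensor-loaded HEK293 cells stably carrying hNpr1 and the pGS-40F cGMP biosensor. Stimulation uses hNppA at 0.1 nM final; luminescence is taken at baseline and 20 min post-agonist.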
Starred values were filed as active, the others as inactive; ? = inconclusive; [ ] = dose if it differs, or a comment. % is scaled to controls: 0 for no effect and ±100 for the full control effect; potency is read from the fitted curve at half-maximal effect.

hNpr1 antagonist,smiles
0%[70.6 µM],CN1CCC2(C1)CN(Cc1ccccc1)c1ccc(C(=O)NCc3cccs3)cc12 (stereo unspecified)
0%,Cc1cc(C(F)(F)F)nc(CCNC(=O)c2ccc3ncccc3c2)n1
5%[70.6 µM],COc1ccc(-c2cc(C(=O)NCCc3cnc[nH]3)c3c(c2)N(C)CCO3)cc1OC
-4%[70.6 µM],C=CCNC(=O)c1ccn2nccc2c1
0%,Cc1cc2nc3n(c(=O)c2n1CC(=O)N1CCc2ccccc21)CCCCC3
-2%,O=C(O)C[C@@H]1CCN(C(=O)c2ccc(F)cc2)C[C@@H]1CCN1CCN(c2ccccn2)CC1
-12%,O=C(C1CCCC1)N1CC(c2noc(COc3ccccc3)n2)C1
4%,Cc1nn(C)c(C)c1CCC(=O)N1CCOCC1CC(=O)NC1CCCC1 (stereo unspecified)
2%,Cn1ccc(NC(=O)CC[C@H]2NC(=O)c3ccccc3NC2=O)n1
-1%,c1cncc(-c2ccnc(NCCCn3nccc3C3CC3)n2)c1
4%,Cc1ccc(-c2ccc3nnc(CNC(=O)c4ccccc4F)n3n2)cc1C
-4%,O=C1CCN(C(=O)[C@@H]2CCCN2C(=O)NC2CCCCC2)CCCCCCN1
-1%,C[C@]1(CO)[C@H]2Cc3sc(NC(=O)c4ccco4)nc3[C@@H](CC(=O)NC3CCCCC3)[C@]2(C)CC[C@H]1O
4%,CC[C@H]1CN(C(=O)c2ccnc(Cl)c2)CC[C@H]1CC(=O)N1CCC(C(=O)OC)CC1
4%[70.6 µM],COc1ncccc1-c1cc(-c2c(C)noc2C)cc2c1C(=O)N(C)C2=O

(more compounds)
hNpr1 antagonist,smiles
-2%[70.6 µM],COc1ccc2nc([C@H]3CCN(Cc4ccc(NC(C)=O)cc4)C3)[nH]c2c1
-3%,O=C(NCC1CCN(c2cc(-c3ccc(Cl)cc3)[nH]n2)CC1)c1ccc(=O)[nH]c1
2%[70.6 µM],CN(C)c1ccc(CNC2(Cc3cc(-c4cccc(O)c4)on3)COC2)cc1
-2%[70.6 µM],O=C1c2cc(N3CCOCC3)nc(-c3cnc4[nH]ccc4c3)c2CN1CC(F)(F)F
-7%,COC[C@@H]1CN(C(=O)CC2=CCCCC2)C[C@H]1c1ccncc1
-3%[70.6 µM],COc1ccc(-c2cccc(CCOc3cnc4c(ccn4CC(=O)O)c3)c2)c(F)c1
4%,CN1C(=O)CC(C(=O)O)C12CCN(Cc1cccc(Cn3cccn3)c1)CC2 (stereo unspecified)
0%,Cn1ccnc1C(=O)N1CCC(N2C[C@H](O)C[C@H]2C(=O)NC2CCCCC2)CC1
-8%[70.6 µM],COCCNc1ccc(-c2noc([C@@H]3CCCN3Cc3ccncc3)n2)cn1
-1%[70.6 µM],COCCN1C(=O)[C@@H]2C[C@@H](CN2C(=O)c2cncnc2)Oc2ccccc21
0%[70.6 µM],COc1cccc(C(=O)N(C)Cc2ccccc2C(F)(F)F)c1
-1%[70.6 µM],O=C(Nc1ccccc1)N[C@H]1[C@H](O)[C@@H](N2CCCCC2)[C@@H]2OC[C@H]1O2
16%,O=C(c1ccc2c(c1)OCO2)N1CCn2c(nn(-c3ccc(F)cc3F)c2=O)C1
-1%,O=C1c2c(nc(CNCc3cccnc3)n2Cc2ccccc2)NCCN1Cc1cccc(Cl)c1
0%,CC(=O)N1CCC(NC[C@@H]2C=C(C)[C@H](Cc3nc4ccc(C)cc4[nH]3)C[C@H]2C(C)C)CC1

Following part
hNpr1 antagonist,smiles
-21%,CC(C)NC(=O)c1ccc(CN2C(=O)NC3(CCS(=O)(=O)CC3)C2=O)cc1
-2%,OC[C@@H]1CN(Cc2ccco2)C[C@H]1c1nc(-c2ccncc2)no1
8%,CC(C)CNC(=O)N1CCCN(S(=O)(=O)c2ccccc2)CCC(=O)NCC1
-14%,COc1ccc(Cl)cc1C(=O)N1CCC(n2cc(-c3nc(C)no3)nn2)CC1
11%[70.6 µM],O=C1Nc2ccccc2CC12CCN2[S+](=O)([O-])c1ccccc1 (stereo unspecified)
-6%,COc1ccc(C(=O)N2CCCOCCNC(=O)[C@@H]3CCCC[C@@H]32)c(OC)c1
0%,NC(=O)CN1CCC2(CC1)CCN(C(=O)Cc1cnc[nH]1)CC2CO (stereo unspecified)
-4%,COc1ccc(C(=O)N2CCC(n3cc(-c4nc(C)no4)nn3)CC2)cc1
-12%,CCOc1c(CN(C)C(=O)C(c2ccc(F)cc2)N(C)C)cccc1OC (stereo unspecified)
4%,CNC(=O)Nc1ccc(C2(C(=O)NCc3ccco3)CCC2)cc1
5%,COCc1nc(C2CCN(C(=O)c3n[nH]c4ccccc34)C2)no1 (stereo unspecified)
4%,O=C(NCc1ccccn1)C1CCCN(C2CCN(S(=O)(=O)C3CC3)CC2)C1 (stereo unspecified)
?,CC(=O)N1CCN(c2nc3c(s2)CC(C(=O)Nc2ccc(F)c(Cl)c2)CC3)CC1 (stereo unspecified)
2%[70.6 µM],COC(=O)CN1C(=O)[C@@H]2C[C@@H](O)CN2C2(CN(C3Cc4ccccc4C3)C2)C1=O
1%,c1ccc(-n2cncn2)c(Cn2ccnc2-c2cc3n(n2)CCCNC3)c1

Reprinted from the part before: 5 compounds, followed by the next part.
hNpr1 antagonist,smiles
5%,COCc1nc(C2CCN(C(=O)c3n[nH]c4ccccc34)C2)no1 (stereo unspecified)
4%,O=C(NCc1ccccn1)C1CCCN(C2CCN(S(=O)(=O)C3CC3)CC2)C1 (stereo unspecified)
?,CC(=O)N1CCN(c2nc3c(s2)CC(C(=O)Nc2ccc(F)c(Cl)c2)CC3)CC1 (stereo unspecified)
2%[70.6 µM],COC(=O)CN1C(=O)[C@@H]2C[C@@H](O)CN2C2(CN(C3Cc4ccccc4C3)C2)C1=O
1%,c1ccc(-n2cncn2)c(Cn2ccnc2-c2cc3n(n2)CCCNC3)c1
-3%,O=C(NCC1CCCO1)N1CCCCCCn2c(nnc2-c2ccc(F)cc2)CC1 (stereo unspecified)
2%,CCN(CC1CCN(CCc2ccccc2C)CC1)C(=O)C1C=CCN1 (stereo unspecified)
-8%,O=C(NC1CCc2nn(CC3CC3)c(=O)n2CC1)c1ccc(Cn2ccnc2)o1 (stereo unspecified)
1%,CC(C)Oc1ccc2c(NC(=O)c3ccn(C)n3)nn(CC(F)(F)F)c2c1
8%,CN1CCN(CCCNc2nccc(-c3ccccn3)n2)CC1
5%,COc1ccc(-c2nn(-c3ccccc3C)cc2CN2CCCN(C)CC2)cc1F
18%,COC[C@@H]1CN(C(=O)CCc2c(C)noc2C)C[C@H]1c1ccncc1
0%,COCc1nnc2n1CCC(NS(=O)(=O)c1ccc3c(c1)CCC3)CC2 (stereo unspecified)
-3%,CN(C)CC(=O)Nc1ccc2n(c1=O)C[C@H]1C[C@@H]2CN(C(=O)c2ccc3ccccc3c2)C1
1%,CC1CCN(Cc2ccccc2OCC(O)CN2CCSCC2)CC1 (stereo unspecified)
2%,O=C1NCCCc2[nH]c(-c3ccccc3-n3cccn3)nc21
?,O=c1c2c(CO)c(-c3ccc(F)cc3)nn2ccn1Cc1cccc(C(F)(F)F)c1
5%,COc1ccc(CN2CCNC(=O)C2CC(=O)N(C)Cc2cccnc2)c(F)c1 (stereo unspecified)
-15%[70.6 µM],C[C@@H](NC(=O)c1ccc2c(c1)OCO2)c1onc(-c2cccnc2)c1C(=O)O
-10%,Cc1ccc(CNC(=O)N2CCn3nnc(CCC(=O)NC4CC4)c3C2)cc1

Other compounds follow:
hNpr1 antagonist,smiles
-4%,Cc1cc(NC(=O)C2CCN(C(=O)c3ncn4c3COC(c3ccc(F)cc3)C4)CC2)ccc1F (stereo unspecified)
4%[70.6 µM],COCCOc1cc(-c2noc([C@@H]3CCCN3CC3CC3)n2)ccn1
0%,COc1ccccc1C(=O)N1CCC2(CCC(=O)N(Cc3ccccc3)CC2)CC1
5%,CC(=O)N[C@H]1C[C@@H](c2cnc3ccccc3c2)O[C@@H](C2CCCCC2)C1
0%,CC1(c2ccccc2)CCCN(C(=O)c2cnc(-c3cccnc3)nc2)C1 (stereo unspecified)
8%,O=C(c1c[nH]c(=O)c2ccccc12)N1C[C@H](CO)C[C@H](CN2CCCC2)C1
0%,O=C(c1cnc2c(O)cccn2c1=O)N1CCC2(CC1)OCCCC2O (stereo unspecified)
0%,O=C(c1ccccn1)N1CCCC2(C1)Nc1cccnc1NC2=NC1CCCC1 (stereo unspecified)
-23%,COc1cc(C(=O)N2CCC(Cc3nc(C(C)C)no3)CC2)cc(OC)c1OC
-18%,O=C(COc1ccc(F)cc1)N1CCCC(Cc2noc(-c3ccccc3)n2)C1 (stereo unspecified)
-2%,Cc1nc(CCN(C)c2nc(C3CCCC3)nc3c2cnn3C)no1
-22%,O=C(Nc1ccccc1)N1CCCC(c2nc(CCOCC3CCCC3)no2)C1 (stereo unspecified)
-3%[70.6 µM],O=C(O)CCC(=O)N[C@H]1CCN2C(=O)c3cc(-c4ccc(Cl)cc4)ccc3NC(=O)[C@H]12
3%,CCSc1ncc(CN(CCOC)Cc2ccccc2F)cn1
-1%[70.6 µM],CN(C)Cc1cn([C@H]2CO[C@H]3[C@@H]2OC[C@H]3OC(=O)Nc2cccc(C(F)(F)F)c2)nn1

The final 2 entries of the part above come first, to join the parts.
hNpr1 antagonist,smiles
3%,CCSc1ncc(CN(CCOC)Cc2ccccc2F)cn1
-1%[70.6 µM],CN(C)Cc1cn([C@H]2CO[C@H]3[C@@H]2OC[C@H]3OC(=O)Nc2cccc(C(F)(F)F)c2)nn1
-17%[70.6 µM],CC(=O)Nc1ccc(CNC2(Cc3cc(CN(C)Cc4ccccc4)on3)COC2)cc1
-16%[70.6 µM],COc1ccc(OC)c(CN2CCCn3nc(C)c(-c4cnccc4C)c32)c1
2%[70.6 µM],O=C(NCCOc1ccccc1)[C@@H]1C[C@H](c2ccc(F)cc2)N([S+](=O)([O-])C2CC2)C1
?,COc1ccc(NC(=O)C2CCN(C(=O)c3ncn4c3COC(c3ccccc3)C4)CC2)cc1Cl (stereo unspecified)
-3%,CC(C)N1CCN(Cc2cnc(N3CCOCC3)s2)CC1CCO (stereo unspecified)
-3%,COC1(c2ccccc2)CCN(C(=O)C2CCCN(C(=O)N(C)C)C2)CC1 (stereo unspecified)
1%,CCOc1cc(-c2noc(-c3nnn4c3COC(c3ccc(C)cc3C)C4)n2)ccc1OC (stereo unspecified)
2%,O=C1CCN(Cc2ccc3c(c2)CCO3)CCCC(c2nc(-c3cccnc3)no2)CCN1 (stereo unspecified)
2%,CC(C)c1noc(C2CCN(C(=O)Cn3ccc4ccccc4c3=O)CC2)n1
5%,O=C(CC[C@H]1NC(=O)c2ccccc2NC1=O)NCCCc1nnc2ccccn12
3%,COCC(=O)N1CC(C(=O)NCCc2ccccn2)C2(CCOCC2)C1 (stereo unspecified)
?,CC(C)(C)c1ccc(CCCc2nc(C3CCOC3)no2)cc1 (stereo unspecified)
3%,Cc1cnc(CC2CCN(C(=O)C3CCC3)C2)n1C(C)C (stereo unspecified)
14µM*,CCOc1ccc(CN2CCN(c3nc4ccccc4o3)CC2CCO)cc1 (stereo unspecified)
1%,CS(=O)(=O)N1CCCNCCNC(=O)CC1c1ccccc1 (stereo unspecified)

Next part
hNpr1 antagonist,smiles
1%,O=C1Nc2ccc(-c3ccc4c(c3)OCO4)cc2C(=O)N2CCN(C(=O)NC3CCCCC3)C[C@H]12
-1%[70.6 µM],COc1ccc(OC)c(-c2n[nH]c3c2CC(=O)N(Cc2ccccc2)C3)c1
3%,Cc1ccc(NC(=O)O[C@@H]2CC[C@]3(C)C(CC[C@@H](O)[C@H]3CC(=O)N3CCCC3)[C@]2(C)CO)cc1 (stereo partly specified)
?,COc1ccc(C2Cn3cnc(-c4nc(-c5ccsc5)no4)c3CO2)cc1 (stereo unspecified)
0%,COc1ccc(C2(C(=O)N3CCCOCCNC(=O)[C@@H]4CCC[C@@H]43)CC2)cc1
-1%[70.6 µM],Cc1cc(CNC(=O)[C@@H]2CCC[C@@H](NC(=O)C3CCOCC3)CN(C)C(=O)C2)no1
2%,O=C(Nc1ccccc1)N1CCc2nc(-c3ccc(Cl)cc3)nc(-c3ccccc3)c2C1
-23%[70.6 µM],c1cc(-c2cc(-c3cn[nH]c3)c3cncn3c2)cc(N2CCOCC2)c1
-16%,COCc1ccc2c(c1)c(OC(C)(C)C(=O)NCCc1cnc[nH]1)nn2Cc1ccccc1
-3%,NC1CC(c2cc(N3CCN(c4nnc(C(F)(F)F)s4)CC3)ncn2)C1 (stereo unspecified)
1%,CC1=C[C@@H](CNC(=O)[C@@H]2CCCC[C@@H]2C(=O)O)[C@H](C(C)C)C[C@H]1Cc1nc2c(C)cccc2[nH]1
?,COc1ccc(C(=O)NCCc2noc(-c3ccccc3)n2)cc1F
-17%,COc1ccc(CN2CC3(CCN(S(=O)(=O)c4cc(F)ccc4F)CC3)C2=O)cc1
0%,Cc1cn2nc(C(=O)Nc3ccc(Cl)c(C)c3)cc2c(N2CCSCC2)n1
5%,O=C(c1cc(-c2ccccn2)n[nH]1)N1C[C@@H](CN2CCCCC2)[C@@H](CO)C1

Next results follow.
hNpr1 antagonist,smiles
-13%,Cc1cc(C)cc(C(=O)N2CCN(c3cc(-c4ccccc4)[nH]n3)CC2)c1
3%,COc1cccc(NC(=O)C2CCCN(S(=O)(=O)c3cn(C)cn3)CCC(=O)NCC2)c1 (stereo unspecified)
4%,COc1ccc(-n2nc(C3CCCN(C(=O)c4cccc(OC)c4)C3)[nH]c2=O)cc1 (stereo unspecified)
?,CCn1cc(CN(C)C(=O)c2cc(-c3ccc(OC)cc3)cn2CC)c(C)n1
?,CCC(=O)N1CCc2ccc(C(=O)NC3CCCCC3)cc21

Looked up above.
For hNpr1 antagonist, Cc1cc(C)cc(C(=O)N2CCN(c3cc(-c4ccccc4)[nH]n3)CC2)c1 reads -13%
For hNpr1 antagonist, COc1ccc(-n2nc(C3CCCN(C(=O)c4cccc(OC)c4)C3)[nH]c2=O)cc1 (stereo unspecified) reads 4%

Screening results from PubChem.

Only part of the results is shown; the hit share may differ from the screen's.
